Screening data from PubChem BioAssay.
PglD inh = C. jejuni PglD acetyltransferase inhibitors, primary screen, biochemical, DTNB colorimetric, single point | UDP-N-acetylbacillosamine N-acetyltransferase PglD (Campylobacter jejuni) | purified PglD enzyme, DTNB colorimetric CoA detection | inhibition, % at 12.5 µM | 360,000 compounds, 0.098% hits; in the data active means inhibition above about 16%, passing the limit was not always enough; inconclusive means no clear call, values can overlap the other calls; further: strong numbers were not always called active
Cneo AK release = Cryptococcus neoformans cell lysis inducers, primary screen, AK release luminescence, single concentration | AID 651654, 2012 | lysis activity, % at 15 µM | 360,000 compounds, 0.2% hits | C. neoformans lysis, adenylate kinase release luminescence, 4 h; normalised: neutral wells 0, clomiphene wells 100;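 active means mean lysis activity across replicates of at least 80%, whatever share of replicates individually reach that level; inactive means mean lysis activity below 80%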
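Test system: log-phase Cryptococcus neoformans yeast cells. Input: 5 × 10^6 yeast cells/mL. Medium: fresh YPD growth medium. Doses: single dose. Incubation: static 4 h at 37 °C with compound, 1 h detection. Measured by: luminescent adenylate kinase detection reagent. Read-out: signal increase indicating cell lysis. Benchmarks: Clomiphene.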
Statin myotox sup = suppressors of statin myotoxicity in C2C12 myotubes, primary screen, cell-based, single point, plate reader; 330,000 compounds, 0.78% hits; C2C12 myotubes + simvastatin, ATP luminescence, 48 h; scaled: DMSO 0, geranylgeraniol control 100; rescue of ATP level, % at 7.49 µM;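 active means mean ATP rescue above about 67%, or every replicate alone reaching that limit, limit read from the data, passing the limit was not always enough; inconclusive means no clear call, values can overlap the other calls; inactive means mean under the limit and some replicate under it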;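 further: myotubes were challenged with 10 µM simvastatin during compound exposure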
LGR2 inh = inhibitors of bursicon-induced LGR2 CRE-luciferase signal, primary screen, cell-based, HEK293, CRE-luciferase reporter, bursicon stimulation | inhibition, % at 9.99 µM | AID 720647, 2013 | 380,000 compounds, 0.35% hits | bursicon-stimulated, 4 h;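 active means drop in luminescence signal, shown as inhibition above about 50% in the replicate tests, limit read from the data, passing the limit was not always enough; inconclusive means probably only some replicates passing the limit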;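 further: agonist challenge used bursicon conditioned medium at about half maximal strength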
GSIS activator = GLuc luminescence reporter in INS-1E cells, primary screen for activators of glucose-dependent secretion of insulin; INS-1E GLuc reporter insulin secretion, 2-3 h; activation, % at 16.6 µM; 370,000 compounds, 0.61% hits; AID 743287, 2014;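 active means lowest replicate activation of at least 40%, so every replicate reaches that level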;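 further: 0% = median of neutral control wells and 100% = median of IBMX positive control wells; some compounds called inactive have numbers as strong as hits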
PAX8 reporter = inhibitors of PAX8-driven TPO luciferase reporter, primary screen, RMG-I cells, single concentration; SteadyGlo, 24 h; 360,000 compounds, 1.2% hits; inhibition, % at 12.6 µM;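 active means mean replicate inhibition at least 60% with every replicate also reaching 60%; inconclusive means only one of the two criteria is met; inactive means mean below 60% and not all replicates reaching 60%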;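 further: luciferase light reporting Pax8 driven TPO promoter activity; plate controls were median of neutral control wells for no effect and mitoxantrone controls for full effect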
PGC1a acetyl inh = inhibitors of PGC1a acetylation signal, primary screen, cell-based, U2OS, AlphaScreen, inhibitor mode; inhibition, % at 15.6 µM; AID 651687, 2012; 350,000 compounds, 0.17% hits; AlphaScreen anti-acetyl-lysine; with virally co-expressed GCN5 acetyltransferase;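 active means every replicate shows inhibition of at least 40%; inconclusive means mean inhibition at least 40% but some replicate below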;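 further: 0% = neutral control wells and 100% = positive control wells; some results beyond the cut were filed as inactive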
Numbers without * were called inactive; ? = inconclusive; . = not tested or not shown. Not all compounds are listed; count on the stated rates, not on these rows.

Values run as follows: PglD inh	Cneo AK release	PGC1a acetyl inh	LGR2 inh	Statin myotox sup	GSIS activator	PAX8 reporter
- O=C(NNC(=S)Nc1ccccc1Cl)c1ccccc1Cl
  6	-4	.	-41	-2	-20	-201
- O=C(NCC1CC1)C1(S(=O)(=O)c2ccccc2)CC=CC1
  -6	-1	8	11	13	-11	-10
- COc1ccccc1-n1c(-c2cc(-c3ccc(F)cc3)n[nH]2)n[nH]c1=S
  9	7	2	3	24	-18	-14
- COc1ccc(OC)c(NC(=O)CSc2ccc3nnc(-c4cccnc4)n3n2)c1
  6	1	5	5	-2	-1	22
- COc1ccc(C2NC(c3ccc(OC)cc3OC)C(C)C(=O)C2C)c(OC)c1 (centres undefined)
  .	.	.	3	.	17	0
- Cc1onc(-c2c(Cl)cccc2Cl)c1C(=O)Nc1ccc(N2CCOCC2)cc1
  3	0	3	.	-3	-20	-1
- Cc1cc(NC(=O)CSc2nnc(C3COc4ccccc4O3)o2)no1 (centres undefined)
  5	0	8	.	.	.	.
- O=C(NCc1ccccn1)c1cccc(NS(=O)(=O)c2cccc(Cl)c2)c1
  .	.	.	1	.	11	-19
- Cc1cc(C)c2c(CC(=O)NN(C)C)coc2c1
  -7	3	5	0	3	1	6
- COc1ccccc1NC(=O)c1ccc2c(O)c(S(=O)(=O)c3ccccc3)c(=O)[nH]c2c1
  -2	0	1	11	6	9	-8
- COc1ccc(N(C(C)=O)S(=O)(=O)c2cccc3cccnc23)cc1
  .	.	.	.	.	.	28
- CCOc1ccccc1NC(=S)Nc1ccc2cn[nH]c2c1
  .	.	18	15	.	-4	-68
- NS(=O)(=O)c1ccc(NC(=O)COC(=O)C2(c3ccccc3F)CCCC2)cc1
  .	.	.	0	-20	-39	-5
- C[C@H]1CCCCO[C@H](CN(C)C(=O)Nc2ccc(F)cc2)[C@@H](C)CN([C@@H](C)CO)C(=O)c2cc(NS(=O)(=O)c3ccc(Cl)cc3)ccc2O1
  -3	85*	15	19	.	-4	17
- CCOC(=O)C1CCCN(C(=O)c2ccc(S(=O)(=O)NCc3ccco3)cc2)C1 (centres undefined)
  -2	1	.	-15	-3	-2	9
- Cc1ccc(S(=O)(=O)N(C)C[C@H]2Oc3c(NC(=O)NC4CCCCC4)cccc3C(=O)N([C@@H](C)CO)C[C@@H]2C)cc1
  2	47	1	2	-3	-9	-8
- Cc1cc(C)c2c(CC(=O)N3CCCC3)coc2c1
  3	3	19	0	-5	-2	-15
- C[C@@H]1CN([C@@H](C)CO)C(=O)c2cc(C#Cc3ccccn3)cnc2O[C@@H]1CN(C)Cc1ccccc1
  .	.	-10	-6	3	4	.
- CN(C)/C=N/c1nc(Sc2ccc(C(F)(F)F)cc2[N+](=O)[O-])n[nH]1
  .	.	.	-3	.	-3	-4
- CSC1=N/C(=C\c2ccccc2Cl)C(=O)N1N(C)C
  2	1	.	-2	-3	29	0
- O=C(Nc1ccc(S(=O)(=O)Nc2ccccn2)cc1)c1cccc(Br)c1
  -14	-1	3	-9	-2	-5	10
- CCCN(CCC)C(=O)/C=C/c1cccc([N+](=O)[O-])c1
  .	.	9	-7	.	9	-13
- C[C@H](CO)N1C[C@H](C)[C@@H](CN(C)S(=O)(=O)c2cccs2)OCCCC[C@H](C)Oc2ccc(NS(C)(=O)=O)cc2C1=O
  4	-1	3	-8	-52	9	13
- Fc1ccc(-c2csc(-c3cccnc3)n2)cc1F
  6	-1	.	-36	-23	33	-32
- Cc1ccc(OCCCC(=O)Nc2ccc(S(N)(=O)=O)cc2)cc1
  1	-6	6	14	5	2	-10
- Cc1cnc(C(=O)Nc2nnc(C(C)C)s2)cn1
  -2	-9	0	.	13	.	-125
- CC(C)NC(=O)NC(=O)COC(=O)Cc1c(F)cccc1Cl
  2	0	6	9	7	0	5
- CCOC(=O)[C@@H](C)N(Cc1ccc(OC)cc1)S(=O)(=O)N(Cc1ccccc1)[C@H](C(=O)OC)C(C)C
  -3	5	8	1	9	-25	4
- COC(=O)C(C)n1cnc2c(nnn2-c2ccc(OC)cc2)c1=O (centres undefined)
  -7	10	-7	6	.	-6	.
- CCN(Cc1cc(=O)n2ccsc2n1)Cc1nc2ccccc2c(=O)[nH]1
  -6	2	-2	-13	-18	7	25
- C[C@@H]1CCCCO[C@@H](CN(C)C(=O)NC2CCCCC2)[C@H](C)CN([C@H](C)CO)C(=O)c2cc(NC(=O)C3CCCCC3)ccc2O1
  4	-2	18	21	17	-24	12
- CC(=O)C1=C(C)Nc2ncnn2C1c1cccc(OCc2ccccc2)c1 (centres undefined)
  1	0	2	6	11	.	12
- COc1cc2c(cc1OC)CN(C(=O)c1ccncc1)CC2
  1	2	0	-11	17	17	3
- COC(=O)[C@@H](CC(C)C)NS(=O)(=O)N(Cc1ccccc1)[C@@H](CC(C)C)C(=O)OC
  -2	-2	-25	21	-3	-31	-20
- CC(=O)N(C)C[C@@H]1Oc2cc(-c3ccc(C#N)cc3)ccc2S(=O)(=O)N([C@@H](C)CO)C[C@@H]1C
  3	1	-3	-1	12	7	.
- COc1ccc(-c2cnnn2-c2ccc(NC(=O)/C=C/c3ccc(OC)c(OC)c3)cc2)cc1
  .	.	.	8	.	10	-33
- C[C@H]1CN([C@@H](C)CO)C(=O)c2cc(C3=CCCCC3)cnc2O[C@H]1CN(C)C(=O)Cc1cccnc1
  5	0	-13	13	8	30	.
- O=C(C[C@@H]1C[C@H]2c3cc(NC(=O)CC4CC4)ccc3O[C@H]2[C@@H](CO)O1)NCc1cccc(F)c1
  1	3	10	-12	0	1	.
- C[C@@H]1CN([C@H](C)CO)C(=O)c2cccc(NC(=O)c3ccncc3)c2O[C@H]1CN(C)Cc1ccc(-c2ccccc2)cc1
  0	-1	6	17	-35	-39	0
- COc1ccc(CNC(=O)C[C@@H]2CC[C@H]3[C@H](COc4ccc(NC(=O)C5CC5)cc4C(=O)N3C)O2)cc1
  1	6	2	2	-11	-9	8
- CCn1c(COc2ccc(C)cc2)nnc1SCC(=O)NNC(=O)c1ccc(OC)cc1
  -2	-3	8	0	.	-2	-18
- O=C(Nc1cccc(-n2cnnn2)c1)c1ccoc1COc1ccc(Cl)cc1
  -3	-2	-5	-9	0	-60	2
- Cc1cc(NC(=O)CSCc2ccc([N+](=O)[O-])cc2)no1
  .	.	11	0	.	8	0
- COc1ccc(CNC(=O)C[C@@H]2CC[C@@H]3[C@H](COc4ccc(NC(=O)C5CC5)cc4C(=O)N3C)O2)cc1
  3	4	-7	-6	4	5	5
- CN(C)CCNC(=O)CCCNC(=O)Cn1cnc2sc3c(c2c1=O)CCCC3
  -2	2	0	.	.	.	.
- COc1cccc2c1CCc1c-2nc2ccccc2c1C(=O)O
  .	.	.	1	.	12	-22
- CCCCCSc1nc(O)cc(=O)[nH]1
  12	4	2	.	0	.	.
- COc1ccc(/C(C)=N/NC(=O)c2ccc(NS(=O)(=O)c3cccs3)cc2)cc1
  -5	-2	-8	-9	.	6	15
- CC(C)Oc1ccc(C2CC(=O)N(c3cccc(/C=C/C(=O)O)c3)C2=O)cc1 (centres undefined)
  -4	-1	7	-7	-11	5	-6
- CCOC(=O)c1cc(Br)c(=O)n2ccccc12
  -4	1	-4	.	18	.	.
- O=C(N[C@@H]1CC[C@H](CCn2cc(-c3ccccc3)nn2)O[C@H]1CO)c1cnccn1
  3	-1	6	-12	1	11	15
- CCSc1nnc(NC(=O)C2Cc3ccccc3CN2S(=O)(=O)CC)s1 (centres undefined)
  .	.	.	.	.	-5	-26
- COc1cccc(-c2ccc3c(c2)[C@@H]2[C@@H](CCN2C(=O)NC2CCCC2)[C@H](CO)N3C)c1
  2	3	-11	9	-4	0	?
- COc1ccc(/C=N/NC(=O)c2cccc(C(=O)N/N=C/c3ccc(OC)cc3)n2)cc1
  3	-2	.	-9	-7	-12	-33
- O=C(NCc1cccnc1)c1cc(-c2ccco2)on1
  2	-2	-20	-14	-30	-1	.
- CCOCCCNC(=O)CCCC1=NS(=O)(=O)c2ccccc2N1
  -8	8	.	24	-2	7	-6
- COc1ccccc1C1/C(=C(/O)c2ccccc2)C(=O)C(=O)N1CC(C)O (centres undefined)
  -4	0	1	.	.	.	.
- O=C(O)c1c2c(nc3ccccc13)/C(=C/c1c(F)cccc1F)CCC2
  -3	0	.	-3	4	-16	-3
- C[C@H]1CN([C@@H](C)CO)C(=O)Cc2cc(NC(=O)Nc3cccc4ccccc34)ccc2O[C@H]1CN(C)Cc1ccc(C(=O)O)cc1
  -4	8	-2	14	1	-9	-6
- CCS(=O)(=O)c1ccc(-c2cccc(NC(=O)COc3ccc(Cl)cc3)c2)nn1
  0	-15	9	-2	-9	7	-10

Record cards (already shown).
O=C(N[C@@H]1CC[C@H](CCn2cc(-c3ccccc3)nn2)O[C@H]1CO)c1cnccn1 is listed with PglD inh = 3; Cneo AK release = -1; PGC1a acetyl inh = 6; LGR2 inh = -12; Statin myotox sup = 1; GSIS activator = 11; PAX8 reporter = 15
CCSc1nnc(NC(=O)C2Cc3ccccc3CN2S(=O)(=O)CC)s1 (centres undefined) is listed with PglD inh = .; Cneo AK release = .; PGC1a acetyl inh = .; LGR2 inh = .; Statin myotox sup = .; GSIS activator = -5; PAX8 reporter = -26

Carrying on.
Values run as follows: PglD inh	Cneo AK release	PGC1a acetyl inh	LGR2 inh	Statin myotox sup	GSIS activator	PAX8 reporter
- O=C(Nc1ccc(N2CCCC2)cc1)C(Cl)c1ccccc1 (centres undefined)
  5	-1	11	.	11	.	.
- CC1(C)C2([N+](=O)[O-])CN3CC1([N+](=O)[O-])CN(C2)C3c1ccccc1 (centres undefined)
  .	.	.	1	.	56*	.
- COc1ccc(NC(=O)N2C[C@@H]3[C@H](c4ccccc42)[C@@H](CO)N3Cc2ccccn2)cc1
  1	1	4	-5	3	14	-4
- COc1ccc(NC(=S)NCCCn2ccnc2)cc1
  0	1	-2	.	16	.	.
- O=C(Nc1ccc(Br)cc1)c1cc(S(=O)(=O)Nc2ccccn2)ccc1Cl
  -1	0	-19	7	2	14	0
- O=C(CSc1ccc2nnc(-c3ccccn3)n2n1)Nc1ccc2c(c1)OCCO2
  -3	-2	7	-12	.	12	6
- COc1ccc(-c2nnc(-c3cccnc3)o2)cc1
  1	1	3	.	1	.	-192
- COCCNC(=O)C[C@H]1C[C@H]2c3cc(NC(=O)C4CCOCC4)ccc3O[C@H]2[C@H](CO)O1
  0	0	2	6	-1	11	-20
- CC(C)NC(=O)Nc1ccc2c(c1)CC(=O)N([C@H](C)CO)C[C@@H](C)[C@@H](CN(C)Cc1ccc(Oc3ccccc3)cc1)O2
  2	105*	-6	-5	-75	-20	28
- COc1ccc(Nc2cc(NCCCO)c([N+](=O)[O-])c3nonc23)cc1
  -6	-4	6	9	-10	7	15
- Cc1ccn2cc(C(=O)Nc3ccccc3N3CCOCC3)nc2c1
  -2	0	-13	15	11	-5	.
- COc1cc(OC)c(/C=N/NC(=O)COc2cccc3cccnc23)c(OC)c1
  .	.	-8	3	0	2	4
- O=C(O)c1nccnc1C(=O)Nc1ccc(Cl)cc1Cl
  -2	-3	3	4	4	25	-19
- CC(=O)c1ccc(NC(=O)CSc2ccc3nnc(-c4ccccn4)n3n2)cc1
  0	5	.	15	.	13	-2
- CCOc1ccc(C(C)=O)cc1CSc1nnc(-c2ccncc2)n1CCOC
  3	-1	5	6	2	3	12
- Cc1c(C(=O)O)sc2nc(/C=C/c3ccccc3OC(F)F)[nH]c(=O)c12
  0	0	.	3	-2	-9	6
